Bioassay records (PubChem BioAssay)
H5N1 antiviral = MDCK cell protection from H5N1 avian flu; cytopathic effect, luminescence, 72 h; active compounds read high; no value below 0 was filed and about half of the inactive calls have no number; reference of the scale not given here; inhibition, % at 50 µM; actives 0.07% (n = 96,000); in the data active = inhibition above about 25%
Starred values were filed as active, the others as inactive. Only part of the results is shown. The share of hits here may be higher or lower than overall.

For Cn1cc(S(=O)(=O)N2CCC(Cc3ccccc3)CC2)c(=O)n(C)c1=O the results were H5N1 antiviral 1.0.
COc1cc(C)c(CNc2ccc(OC)c(OC)c2)cc1C was read as H5N1 antiviral inactive.
For CCN(Cc1ccccc1)CC(O)COc1ccccc1 (stereo not drawn) the results were H5N1 antiviral inactive.
For COc1ccc2c3c(c(=O)oc2c1OCC(N)=O)CCCC3 the results were H5N1 antiviral 0.7.
For CC1(C)SC(=S)N(/N=C/c2ccc(O)cc2)C1N(O)C(=O)Nc1ccc([N+](=O)[O-])cc1 (stereo not drawn) the results were H5N1 antiviral inactive.
Screening CN(C)c1nc(SCCOC(=O)COc2ccc(Cl)cc2Cl)nc(N(C)C)n1 returned H5N1 antiviral inactive.
For O=C(Nc1ccc2ccccc2c1)c1nn(C23CC4CC(CC(C4)C2)C3)cc1Br the results were H5N1 antiviral 1.7.
For Cc1ccc2cc(CN(Cc3ccc4c(c3)OCO4)Cc3nnnn3Cc3ccco3)c(=O)[nH]c2c1 the results were H5N1 antiviral inactive.
`COc1ccc(CCNC(=O)CSc2ncn[nH]2)cc1` gave H5N1 antiviral inactive.
Screening Cc1cccc(C)c1NC(=O)C1=C(O)c2ccccc2N(C)S1(=O)=O returned H5N1 antiviral inactive.

Looked up one by one from the list above (2):
For COc1ccc2c3c(c(=O)oc2c1OCC(N)=O)CCCC3 the results were H5N1 antiviral 0.7.
Screening Cc1cccc(C)c1NC(=O)C1=C(O)c2ccccc2N(C)S1(=O)=O returned H5N1 antiviral inactive.

Additional compounds.
Cn1nnnc1SCC(=O)Nc1ccc(Br)cc1Cl was read as H5N1 antiviral 0.6.
Screening C#CC(=O)N(c1cc(OC)ccc1OC)C(C(=O)NC1CCCC1)c1cccs1 (stereo not drawn) returned H5N1 antiviral inactive.
Screening CN(C)C(=S)c1ccc2ccccc2n1 returned H5N1 antiviral 0.1.
For CCOC(=O)CNC(=O)Nc1cc(C(C)(C)C)nn1-c1ccccc1 the results were H5N1 antiviral inactive.
CCOc1ccc(Br)cc1S(=O)(=O)NCCN(C)C was read as H5N1 antiviral inactive.
For CCOC(=O)CNC(=O)CSc1nnnn1-c1ccc(C)c(C)c1 the results were H5N1 antiviral inactive.
Screening COc1cc(C)c(Cl)cc1S(=O)(=O)n1cnc(C)c1 returned H5N1 antiviral 0.2.
`CC(NC(=O)COc1ccc(/C=N/NC(=O)C(=O)Nc2ccccc2Br)cc1)c1ccccc1` (stereo not drawn) gave H5N1 antiviral inactive.
For COc1ccc(Cl)cc1NC(=O)C/C(C)=N/NC(=O)CC#N the results were H5N1 antiviral 1.0.
Screening COCc1cc(C)nc(SCC(=O)N2CCC(C)CC2)c1C#N returned H5N1 antiviral 1.7.
`O=C(CSc1nnc(-c2cccnc2)o1)Oc1ccccc1` gave H5N1 antiviral 0.6.
`COc1ccccc1NC(=O)CSc1nnc(-c2ccccn2)n1Cc1ccco1` gave H5N1 antiviral inactive.
`COc1ccc(C2C(C(=O)N3CCOCC3)=C(C)NC3=C2C(=O)CC(C)(C)C3)cc1O` (stereo not drawn) gave H5N1 antiviral 0.0.
CC(C)CN(CC(C)C)C(=O)CS(=O)(=O)Cc1ccccc1 was read as H5N1 antiviral 0.6.
Screening CCCCN(C)Cc1c(C)[nH]c2ccc(C)cc2c1=O returned H5N1 antiviral inactive.
For COc1ccc(-c2oc(NC(=O)CCl)c(C#N)c2-c2ccc(OC)cc2)cc1 the results were H5N1 antiviral inactive.
CN(C)S(=O)(=O)Oc1ccccc1C(=O)Nc1cccc(C(F)(F)F)c1 was read as H5N1 antiviral inactive.
Screening CCCNC(=O)NC1C(NC(=O)NCCC)N(C)C(=O)N1C (stereo not drawn) returned H5N1 antiviral inactive.
For CC(C(=O)Nc1ccccn1)N1C(=O)C2C3C=CC(C3)C2C1=O (stereo not drawn) the results were H5N1 antiviral 3.3.
For N#C/C(=C\c1ccc(OCc2ccccc2)cc1)C(=O)Nc1nc2c(s1)CCN(Cc1ccccc1)C2 the results were H5N1 antiviral inactive.
Screening CC(=O)NC1C(=O)N=C(SCC(=O)NC(C)c2ccccc2)NC1=O (stereo not drawn) returned H5N1 antiviral 0.7.
For CCN(CC)S(=O)(=O)c1ccc2c(c1)nc(CCC(=O)OCC(=O)N1CCc3ccccc31)n2C the results were H5N1 antiviral 0.8.
Cc1ccsc1-c1nc(-c2ccccc2)c(-c2ccccc2)[nH]1 was read as H5N1 antiviral 0.1.
CCCCCn1c(CNC(=O)COC)nc2ccccc21 was read as H5N1 antiviral 0.9.
For CC1CC1C(=O)OCC(=O)NCc1ccccc1Cl (stereo not drawn) the results were H5N1 antiviral 0.1.
O=C1c2ccccc2C(=O)N1CCC(c1ccc(F)cc1)c1ccco1 (stereo not drawn) was read as H5N1 antiviral 0.9.
`O=C(CSc1nnc(COc2cccc3ccccc23)o1)N1CCN(C(=O)c2ccco2)CC1` gave H5N1 antiviral 0.0.
For CCN(Cc1ccccc1)C(c1ccc(Cl)cc1)c1nnnn1C(C)(C)C (stereo not drawn) the results were H5N1 antiviral inactive.
`CC(=NCC1CCCO1)c1c(O)n(-c2ccccc2)c(=O)[nH]c1=O` (stereo not drawn) gave H5N1 antiviral inactive.
`CCOC(=O)CSC1=C(C#N)C(c2ccc(C)cc2)C2=C(CCCC2=O)N1` (stereo not drawn) gave H5N1 antiviral inactive.
N#C/C(=C\c1ccc[nH]1)Sc1nc2ccccc2s1 was read as H5N1 antiviral inactive.
Screening c1coc(-c2nn3c(-c4ccco4)nnc3s2)c1 returned H5N1 antiviral 9.4.
Cc1ccc(C)c(-c2nc3ccc(N)cc3[nH]2)c1 was read as H5N1 antiviral inactive.
O=C(NCCC(=O)N1CCN(c2ncccn2)CC1)c1ccccc1 was read as H5N1 antiviral inactive.
For CC(/C=C(\NC(=O)c1ccccc1)C(=O)N=Nc1c(O)[nH]c2ccc(C)cc12)=C\c1ccccc1 the results were H5N1 antiviral inactive.
Cc1cc(C(=O)COC(=O)Cn2c(C(F)(F)F)nc3ccccc32)c(C)n1Cc1ccco1 was read as H5N1 antiviral inactive.
`CCOC(=O)c1[nH]c2ccc(F)cc2c1NC(=O)c1cc(OC)c(OC)c(OC)c1` gave H5N1 antiviral inactive.
Screening Cc1oc(/N=C/c2cccc3ccccc23)c(C#N)c1C returned H5N1 antiviral inactive.
`CCC(C)Oc1cccc(OCCCCN2C(=O)NC(C)(C)C2=O)c1` (stereo not drawn) gave H5N1 antiviral 2.3.
For COc1cc2c(cc1OC)C(c1cccc([N+](=O)[O-])c1)N(C(=O)c1ccc(F)cc1)CC2 (stereo not drawn) the results were H5N1 antiviral 2.1.
CC(C)CCN(C)c1ccc(/C=N/n2cnnc2)cc1 was read as H5N1 antiviral inactive.
COc1ccc(NC(=S)N2CCC(c3nc4ccccc4[nH]3)CC2)c(OC)c1 was read as H5N1 antiviral inactive.
Screening CC(=O)Nc1ccc(S(=O)(=O)NCCSCc2c(Cl)cccc2Cl)cc1 returned H5N1 antiviral inactive.
COc1cc(NC(=O)c2cc(CC(C)C)on2)c(OC)cc1Cl was read as H5N1 antiviral inactive.
For COCC(=O)Nc1sc2c(c1C(=O)OC)C(C(=O)OC)CC2 (stereo not drawn) the results were H5N1 antiviral 0.6.
For Cc1ccc(-n2c(CNc3ccc(F)cc3)nnc2SCC(N)=O)cc1 the results were H5N1 antiviral 0.5.
`C=CCc1cc(/C=N/NC(=O)CSc2nnc(CCCc3ccc(OC)cc3)o2)cc(OC)c1O` gave H5N1 antiviral 0.7.
O=C(OCC(=O)N1CCCCCC1)c1n[nH]c(=O)c2ccccc12 was read as H5N1 antiviral 0.7.
`COCCNC(=O)Cn1nc(C(F)(F)F)cc1C` gave H5N1 antiviral inactive.
For CCn1c(SCC(=O)c2ccc(CNC(C)=O)o2)nnc1-c1cccs1 the results were H5N1 antiviral 1.4.
Screening Cc1nnc(SCC(=O)Nc2ccc(Cl)cn2)n1Cc1ccccc1 returned H5N1 antiviral 0.3.
For Cc1cccc(N(CC(=O)N2CCCC2)S(=O)(=O)c2ccccc2)c1C the results were H5N1 antiviral 0.1.
`Cc1cc([N+](=O)[O-])cc2ncccc12` gave H5N1 antiviral 0.4.
CCOc1ccc(-n2c(SCC(=O)Nc3cc(C)on3)nnc2-c2c[nH]c3ccccc23)cc1 was read as H5N1 antiviral 1.1.
Nc1ccc2oc(=O)c3ccccc3c2c1 was read as H5N1 antiviral 0.7.
Screening O=C(CSc1nnnn1C1CCCC1)NCc1ccc2c(c1)OCO2 returned H5N1 antiviral inactive.
Screening CCOC(=O)C1=NN(C(=O)Nc2ccc(OC)cc2)C2C(=O)N(c3cccc(C(F)(F)F)c3)C(=O)C12 (stereo not drawn) returned H5N1 antiviral inactive.
CC(C)c1nc(C#N)c(NCCCn2ccnc2)o1 was read as H5N1 antiviral inactive.
`CCSc1nc2cc(C(=O)OC)ccc2c(=O)n1CC` gave H5N1 antiviral inactive.
Screening COc1ccccc1Oc1ccc2c(c1)C(=O)N(c1ccc(O)cc1)C2=O returned H5N1 antiviral 0.5.
For Cc1cc(NC(=O)c2noc3c2CCCCC3)nn1Cc1ccc(Cl)cc1 the results were H5N1 antiviral inactive.
`CCOC(=O)c1sc2nc(NC(=O)C(C)(C)C)sc2c1C` gave H5N1 antiviral 3.0.
Screening Cc1ccc(C(O)c2ccncc2)cc1 (stereo not drawn) returned H5N1 antiviral inactive.
CC(NC(=O)c1ccccc1)c1nc2ccccc2n1Cc1ccc(C#N)cc1 (stereo not drawn) was read as H5N1 antiviral 0.9.
For CCOc1ccc(Oc2nc(NCC(C)C)nc(OC)n2)nn1 the results were H5N1 antiviral 0.1.
Screening CCC(C)(C(=O)NC1CCCCC1)N(CC1CCCO1)C(=O)c1ccccn1 (stereo not drawn) returned H5N1 antiviral 0.9.
`COc1ccc(OC)c(NC(=O)C(CC(=O)O)NCc2ccco2)c1` (stereo not drawn) gave H5N1 antiviral inactive.
`COc1cc(C2C3C(=O)N(c4ccccc4)C(=O)C3ON2c2ccccc2)cc(OC)c1OC` (stereo not drawn) gave H5N1 antiviral 0.3.
`CC(=O)Nc1c(C#N)c(C(C)(C)C)cn1C` gave H5N1 antiviral inactive.
Screening Cc1ccc(-c2nn(Cc3ccccc3)cc2/C=C/C(=O)O)cc1C returned H5N1 antiviral inactive.
For CCNc1nc(OC)nc(Oc2ccc(=O)n(-c3ccccc3)n2)n1 the results were H5N1 antiviral inactive.
Screening O=C(COC(=O)c1ccccc1NC(=O)c1ccco1)NCC1CCCCC1 returned H5N1 antiviral inactive.
`CC1(C)CC(=O)C2=C(C1)N(Cc1ccco1)C(=O)C2(NC(=O)C1CCCCC1)C(F)(F)F` (stereo not drawn) gave H5N1 antiviral inactive.
Cc1ccc2[nH]c3c(=O)n(CCN4CCNCC4)cnc3c2c1 was read as H5N1 antiviral inactive.
Screening Cc1nn(C)c(C)c1/C=N/NC(=O)c1csc2ccccc12 returned H5N1 antiviral 0.4.
For COc1cccc(NC(=O)CN2CC(c3ccccc3)CC2=O)c1 (stereo not drawn) the results were H5N1 antiviral 1.9.
Cc1cc(NC(=O)Cn2cnc3c2c(=O)n(C)c(=O)n3C)n(-c2ccccc2)n1 was read as H5N1 antiviral inactive.
Screening O=C1C2C3C=CC(C2C(=O)N1C1CCCCC1)C1C(=O)N(C2CCCCC2)C(=O)C31 (stereo not drawn) returned H5N1 antiviral inactive.
Screening O=C(NCCCN1CCN(c2ccccc2F)CC1)C1CCC(=O)N1C1CCCCC1 (stereo not drawn) returned H5N1 antiviral inactive.
Screening CCC(=O)Nc1ccc(S(=O)(=O)NCC2CCCO2)cc1 (stereo not drawn) returned H5N1 antiviral inactive.

Structural class, the compounds so far with a tert-butyl group (four)
For CCOC(=O)CNC(=O)Nc1cc(C(C)(C)C)nn1-c1ccccc1 the results were H5N1 antiviral inactive.
For CCN(Cc1ccccc1)C(c1ccc(Cl)cc1)c1nnnn1C(C)(C)C (stereo not drawn) the results were H5N1 antiviral inactive.
`CCOC(=O)c1sc2nc(NC(=O)C(C)(C)C)sc2c1C` gave H5N1 antiviral 3.0.
`CC(=O)Nc1c(C#N)c(C(C)(C)C)cn1C` gave H5N1 antiviral inactive.

Additional entries
For COc1ccccc1N1CCN(C2=CC(=O)CCC2)CC1 the results were H5N1 antiviral 0.9.
CCOc1ccccc1NS(=O)(=O)c1ccc(OC)c(OC)c1 was read as H5N1 antiviral 1.4.
COc1ccc(NC(=S)N2C3CCC2CC(NC(=O)NC24CC5CC(CC(C5)C2)C4)C3)c(OC)c1 (stereo not drawn) was read as H5N1 antiviral 0.8.
O=C1CC(=O)N(c2cccc(Cl)c2)C(=O)N1 was read as H5N1 antiviral 0.6.
COc1cc(NC(=O)COC(=O)c2nc3nc(C)cc(C)n3n2)cc(OC)c1 was read as H5N1 antiviral inactive.
Screening COc1cccc2cc(C(=O)C3=C(O)C(=O)N(Cc4ccco4)C3c3cccnc3)oc12 (stereo not drawn) returned H5N1 antiviral inactive.
O=C(c1cccc(Cl)c1)c1nn(-c2ccccc2)c(=O)cc1C(F)(F)F was read as H5N1 antiviral 2.5.
`CCCCNC(=O)c1cc2c(=O)n3cccc(C)c3nc2n(Cc2ccccc2)c1=N` gave H5N1 antiviral 7.5.
Screening COC(=O)c1cc2sccc2n1CC(=O)Nc1cc(OC)cc(OC)c1 returned H5N1 antiviral inactive.
`CCn1c(-c2ccc([N+](=O)[O-])cc2)n[nH]c1=S` gave H5N1 antiviral 0.4.
Screening CCOC(=O)Cc1nnc(NC(=O)COc2ccc(F)cc2)s1 returned H5N1 antiviral 1.3.
For CCOC(=O)NCCc1c(C)nc2c(c(C)nn2C(C)(C)C)c1C the results were H5N1 antiviral 0.1.

Of the compounds above, these have a nitro group on carbon:
For CC1(C)SC(=S)N(/N=C/c2ccc(O)cc2)C1N(O)C(=O)Nc1ccc([N+](=O)[O-])cc1 (stereo not drawn) the results were H5N1 antiviral inactive.
For COc1cc2c(cc1OC)C(c1cccc([N+](=O)[O-])c1)N(C(=O)c1ccc(F)cc1)CC2 (stereo not drawn) the results were H5N1 antiviral 2.1.
`Cc1cc([N+](=O)[O-])cc2ncccc12` gave H5N1 antiviral 0.4.
`CCn1c(-c2ccc([N+](=O)[O-])cc2)n[nH]c1=S` gave H5N1 antiviral 0.4.
